# CtBP-E1A inh = qHTS Assay for Inhibitors of the CtBP/E1A Interaction; CtBP / adenovirus E1A interaction (AlphaScreen); AlphaScreen GST-E1A/His-CtBP binding, 1536-well; stronger effect = lower value; control for the full effect not named in the record; activity change, % (concentration not given with the values); actives 0.49% (n = 340,000); in the data active means activity change below about -65%; inconclusive means about -30% to -65%; inactive means above about -30%; also: % is scaled to controls: 0 for no effect and ±100 for the full control effect
#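 AlphaScreen with 125 nM GST-E1A and 125 nM His-CtBP (5X stocks) in Tris pH 8.0, 300 mM NaCl, BSA, Tween 20, TCEP. Compounds preincubated 2 h at 37 deg C, then glutathione donor/nickel acceptor beads added for 1 h at 37 deg C in dark.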
# PINK1 expr mod = A Quantitative High throughput Screen to Identify Chemical Modulators of PINK1 Expression. Potency, µM (titrated, usually from 76.6 µM), inactives show at the highest dose activation (PINK1 increase), hits mostly activators. PINK1 immunofluorescence, high-content cytometry, 24 h. actives 0.2% (n = 410,000); active = well fitted activation curve with a large enough effect; inconclusive = small, poorly fitted or top-dose-only effect; inactive = flat fitted curve, though single readings scatter; cell line not stated here;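 also: potency is read from the fitted curve at half-maximal effect; % of control where 0% means no effect; nearly all actives have a fitted effect of over 65% in size; a mitochondrial uncoupler was the plate control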
#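 Compound titrations (5 concentrations, 24 h) on a stable cell line; DMSO and CCCP controls. Endpoint: fixed-cell PINK1 immunofluorescence with mitochondrial, cell and nuclear markers, scanned by microplate cytometer.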
# D2 ag = Beta-Arrestin HTS for Positive Allosteric Modulators of the Human D2 Dopamine Receptor: Agonists; DiscoveRx PathHunter D2 beta-arrestin, luminescence, 90 min; 100% = 57 uM dopamine signal; AID 624465, 2012; actives 0.084% (n = 360,000); activation, % (concentration not given with the values); in the data active = activation above about 40%; inconclusive = about 15% to 40%; inactive = below about 15%; also: compound concentration not given in the record; the text of the record calls up to 30% inactive
#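 DiscoveRx PathHunter D2 beta-arrestin cells (2,100/well) attached overnight, then compound-stimulated 90 min at 37 C in HBSS/10 mM HEPES/0.1% Tween-20 buffer; beta-galactosidase complementation read by luminescence after 1 h at ambient temperature. Dopamine 57 uM final (EC100) as control.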
# Six1-Eya2 inh = qHTS Assay for Inhibitors of the Six1/Eya2 Interaction; Homeobox protein SIX1 (Homo sapiens) + Protein phosphatase EYA2 (Homo sapiens), …; AlphaScreen GST-Six1/His-Eya2 binding, biochemical; stronger effect = lower value; control for the full effect not named in the record; activity change, % (no concentration beside the values); actives 0.56% (n = 360,000); AID 651725, 2012; in the data active = activity change below about -65%; inconclusive = about -30% to -65%; inactive = above about -30%; also: % is scaled to controls: 0 for no effect and ±100 for the full control effect; compound concentration not given in the record
# Target sequence (O00167 whole entry, looked up): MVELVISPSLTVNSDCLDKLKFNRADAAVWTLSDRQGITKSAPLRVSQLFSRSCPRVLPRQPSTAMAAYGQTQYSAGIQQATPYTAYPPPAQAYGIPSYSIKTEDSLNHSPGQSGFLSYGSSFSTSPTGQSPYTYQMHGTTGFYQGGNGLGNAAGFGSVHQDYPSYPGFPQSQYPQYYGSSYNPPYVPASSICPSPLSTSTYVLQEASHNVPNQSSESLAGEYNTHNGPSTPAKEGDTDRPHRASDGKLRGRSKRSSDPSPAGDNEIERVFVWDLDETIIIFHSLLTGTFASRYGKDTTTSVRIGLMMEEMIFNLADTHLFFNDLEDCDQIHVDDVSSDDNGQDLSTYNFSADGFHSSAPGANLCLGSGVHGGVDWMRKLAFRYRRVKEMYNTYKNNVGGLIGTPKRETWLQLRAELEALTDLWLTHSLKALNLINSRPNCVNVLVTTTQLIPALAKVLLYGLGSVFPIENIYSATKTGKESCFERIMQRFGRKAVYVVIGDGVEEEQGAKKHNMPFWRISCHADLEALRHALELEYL
# Target sequence (Q15475 whole entry, looked up): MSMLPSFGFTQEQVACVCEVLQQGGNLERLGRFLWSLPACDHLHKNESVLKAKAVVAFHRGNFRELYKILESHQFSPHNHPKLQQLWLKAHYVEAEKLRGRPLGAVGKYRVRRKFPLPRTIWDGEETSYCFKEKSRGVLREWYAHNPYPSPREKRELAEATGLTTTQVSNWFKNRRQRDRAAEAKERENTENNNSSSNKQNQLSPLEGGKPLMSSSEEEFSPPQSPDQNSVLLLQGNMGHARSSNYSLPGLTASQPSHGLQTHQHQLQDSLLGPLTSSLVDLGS
#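 GST-Six1 + His-Eya2 (5X stock: 250/500 nM); Tris pH 8.0, 300 mM NaCl, 0.05% BSA, 0.02% Tween 20; GSH donor/Ni acceptor beads; 1 h 37 °C dark; AlphaScreen readout.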
# TRPML1 blocker = qHTS for Inhibitors of the Human Mucolipin Transient Receptor Potential 1 (TRPML1); activity change, negative = inhibition, % (test concentration not listed); TRPML1-inducible cells, Ca2+ dye fluorescence, FDSS; stronger effect = lower value; inhibition of EC80 agonist-evoked calcium signal; AID 624415, 2012; actives 0.02% (n = 390,000); in the data active means activity change below about -50%; inconclusive means about -30% to -50%; inactive means above about -30%;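 also: stimulus is agonist 54-4 at its EC80 concentration; % is scaled to controls: 0 for no effect and ±100 for the full control effect; compound concentration not given in the record; the text of the record puts the active cut at -80%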
#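 TRPML1-DL cells, Tet-induced overnight (~16 h, 37 °C) at 1,500 cells/well, were loaded with Ca8 no-wash dye plus quencher for 45-90 min at room temperature. Compounds were pinned during FDSS kinetic reading; agonist 54-4 at EC80 (4 uM final) then added.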
# TRPML1 agonist = qHTS for Agonists of the Human Mucolipin Transient Receptor Potential 1 (TRPML1). TRPML1-expressing cells, Ca2+ dye fluorescence, FDSS; host cell line not named in the record; reference of the full effect not given here. Mucolipin-1 (Homo sapiens), Q9GZU1. actives 0.12% (n = 410,000). activation, % (concentration not given with the values); in the data active = activation above about 50%; inconclusive = about 30% to 50%; inactive = below about 30%; also: 0% is about no effect; the text of the record puts the active cut at 80%
#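 Calcium fluorescence on an FDSS kinetic reader gave the read-out. Tet-induced TRPML1-DL cells were plated overnight, dye-loaded (Ca8 with quencher, 45-90 min, room temperature, dark), then read 110 s after compound addition, and again 110 s after 4uM final 54-4 (EC80).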
# An asterisk follows results filed as active; ? = inconclusive; · = not tested or not shown; & = joins results of further samples; [ ] = another dose, or the depositor's remark.
SMILES,CtBP-E1A inh,PINK1 expr mod,D2 ag,Six1-Eya2 inh,TRPML1 blocker,TRPML1 agonist
CC1=C(C(=O)N(C)C)CC(CC(=O)NCCc2ccccn2)C(=O)N1CCCN1CCCC1=O (configuration not stated),-22,0.5%,-8.3,-1,22,-0.1
CCOc1cc(C(=O)OCc2cc(=O)n3c(C)csc3n2)cc(OCC)c1OCC,·,-0.6%,·,·,?,-0.5
COc1ccc(-c2nc3ccc(Br)cn3c2Cc2ccsc2)cc1OC,-11,12%,-2.9,0,·,-0.3
CCOC(=O)c1[nH]c(C(=O)O)c(OC(=O)CC)c1C,-7,2.8%,4.0,10,7,0.4
Cc1ccc(/C=N/Nc2ccc(Cl)nn2)cc1,·,2.6%,-5.1,3,7,0.7
Cc1ccc(S(=O)(=O)NCCCN2CCOCC2)c(C)c1,10,2.1%,-9.4,-3,10,-0.3
CCOc1ccccc1NC(=O)Cc1noc2ccc(C)cc12,·,8.2%,·,·,-7,4.0
CCN(CC)S(=O)(=O)c1ccc(N2CCCC2)c(NS(=O)(=O)c2cccs2)c1,·,-1.6%,-3.1,0,7,4.1
O=C(CN1CCN(c2ccc(Cl)cc2)CC1)c1ccccc1,·,0.5%,-3.7,-2,6,-0.4
O=[N+]([O-])c1ccc(N2CCN(c3ccc(F)cc3)CC2)nc1,·,4.9%,-5.3,7,37,1.1
COCCNC(=O)c1ccc(CS(=O)(=O)c2ccc(Cl)cc2)o1,3,-0.8%,-5.4,10,-11,0.6
CCOC(=O)N1CCN(C(=O)C(=O)Nc2sc3c(c2C(=O)O)CC(C)(C)OC3)CC1,0,-0.3%,12,15,4,-0.5
CCOc1cc2sc(N3CCC(C(=O)Nc4ccccc4C(=O)OC)CC3)nc2cc1Br,·,-0.2%,·,·,13,-0.2
Cc1ccccc1COc1ccc(/C(O)=C2/C(=O)C(=O)N(CCCn3ccnc3)C2c2ccco2)cc1 (configuration not stated),1,4.5%[38.3 µM],-2.9,-1,-7,-0.3
Cc1cc2ccccn2c1C(=O)c1nc(NCc2ccco2)ncc1Cl,-13,6.6%,-2.3,-15,16,0.1
O=C(NCCCN1CCCCC1)c1ccc2c(c1)sc1nc(-c3ccc(F)cc3)cn12,·,-0.1%,·,·,1,-0.5
COc1ccc(OC)c(NC(=O)CSC2=Nc3ccccc3C3=NC(CC(=O)NCc4ccco4)C(=O)N23)c1 (configuration not stated),·,0.4%,·,·,39,4.8
COc1ccc(C2=Nc3ccc(C)cc3C(c3ccccc3)N2CC(=O)NN)cc1 (configuration not stated),-18,0.1%,0.9,-13,21,-0.3
COc1cc(CNCCO)cc(Br)c1OCc1ccccc1Cl,-11,-1.3%,-3.3,-1,19,0.0
Cc1ccc(N(Cc2cc(=O)[nH]c3ccccc23)C(=O)CCl)c(C)c1,9,-1.0%,-2.7,17,6,0.5

# Compound profiles, from the list above:
# Entry for `COCCNC(=O)c1ccc(CS(=O)(=O)c2ccc(Cl)cc2)o1` → CtBP-E1A inh = 3; PINK1 expr mod = -0.8%; D2 ag = -5.4; Six1-Eya2 inh = 10; TRPML1 blocker = -11; TRPML1 agonist = 0.6
# Entry for `O=C(NCCCN1CCCCC1)c1ccc2c(c1)sc1nc(-c3ccc(F)cc3)cn12` → CtBP-E1A inh = ·; PINK1 expr mod = -0.1%; D2 ag = ·; Six1-Eya2 inh = ·; TRPML1 blocker = 1; TRPML1 agonist = -0.5

# Later entries:
SMILES,CtBP-E1A inh,PINK1 expr mod,D2 ag,Six1-Eya2 inh,TRPML1 blocker,TRPML1 agonist
CC(=O)N1CCN(C2=NC(=O)C(=C3CCCCC3)S2)CC1,6,-1.4%,-1.4,3,15,-0.7
Cc1ccccc1Cn1c(=O)n(CCCC(=O)NCc2ccco2)c(=O)c2ccccc21,-5,4.2%,-1.1,-4,6,0.8
C=CCOc1ccccc1CN1CCC(C(=O)Nc2cccc(-c3ccn[nH]3)c2)CC1,-6,-0.5%,0.0,-6,-15,0.0
Cc1coc2c(C)c3oc(=O)c(CC(=O)NCc4ccccc4)c(C)c3cc12,·,2.2%,·,·,-11,-0.4
CCCc1nc2ccccc2c(=O)n1/N=C/c1ccccc1O,15,2.8%,-1.2,?,-14,1.8
O=c1[nH]c(SCc2ccccc2)nc2ccsc12,-16,4.3%,5.2,0,-8,1.8
COc1ccc(Cl)c2sc(N3CCN(C(=O)C4=COCCO4)CC3)nc12,-23,1.1%,-3.8,-3,14,-0.3
CCN(CC)c1ccc2nc3ccccc3[n+](CC)c2c1,-75*,4.1%,-14,-67*,24,-0.6
COc1ccc(S(=O)(=O)N2CCOCC2)cc1NC(=O)c1ccc(S(=O)(=O)N2CCCCC2)cc1,3,1.5%,14,2,-6,-0.4
COC(C(=O)Nc1ccnn1C1CCN(Cc2ccc(C)o2)CC1)c1ccccc1 (configuration not stated),0,-0.1%,-1.6,11,-1,-0.2
CN(C)CC/C=C1\c2ccc(F)cc2Sc2cc(F)c(Cl)cc21,·,-2.0%,0.5,12,-13,5.5
COc1ccccc1CC(=O)N1CCN(c2ccc([N+](=O)[O-])cc2)CC1,2,3.3%,-5.3,-8,-1,0.0
COc1cc2c(cc1OC)C(C)N(C(=O)c1cc(Cl)nc(Cl)c1)CC2 (configuration not stated),0,-1.4%,-0.4,-3,-13,3.0
COc1ncnc2c1ncn2CCCN1CCN(C(=O)C2CC2)CC1,8,3.5%,-2.5,-1,·,·
CNc1c([N+](=O)[O-])cnn1-c1ccc(Cl)cc1Cl,0,-3.6%,1.8,1,28,1.1
CCOC(=O)c1cc(S(=O)(=O)Nc2cccc(OC)c2)cn1C,-4,0.2%,-0.5,0,10,-0.7
O=C(Nc1ncccc1O)c1cccc(S(=O)(=O)N2CCCc3ccccc32)c1,-9,1.3%,-4.5,-24,31,0.8
O=C(CN1C(=O)CCC1=O)Nc1nc(-c2ccc(Cl)s2)cs1,-4,3.1%,1.5,-6,-4,0.7
CCOc1ccc2[nH]cc(C(=O)N3CCN(CC)CC3)c(=O)c2c1,4,-0.3%,1.4,0,3,0.5
Cc1nn(C(=O)c2cccc([N+](=O)[O-])c2C)c(C)c1S(=O)(=O)N1CCOCC1,·,1.2%,·,·,-1,0.5
COC(=O)[C@@]1(Cc2ccc(F)cc2)[C@H]2c3cc(C(=O)N(C)C)n(Cc4ccc(C)c(F)c4F)c3C[C@H]2CN1C(=O)c1ccccc1,-4,7.1%,·,-12,·,0.4
CC(C)N(C(=O)[C@H]1C[C@H](CC(=O)NCCC2=CCCCC2)C(=O)N2CCc3c([nH]c4cc(CCC(=O)N(C)C)ccc34)[C@]12C)C(C)C,-7,-0.4%,0.3,-2,-5,-0.2
Cc1cccc(NC(=O)c2cc(S(=O)(=O)N3CCOCC3)cn2C)c1C,0,1.3%,2.1,-2,27,-0.8
OCCC1CN(CCCc2ccccc2)CCN1CCc1ccccc1 (configuration not stated),-5,1.2%,3.3,-2,-1,-0.6
CSc1n[nH]c(N)c1S(=O)(=O)c1ccc(Cl)cc1,1,0.3%,-1.6,-2,8,0.9
CC(C)Oc1ccc(CNC(=O)CCC(=O)N2CC(C)Sc3ccccc32)cc1 (configuration not stated),-17,1.9%,-2.4,1,16,1.7
Cc1cc2nc(SCC(=O)N(C)C)c3c(c2cc1C)CCCC3,2,-1.6%[38.3 µM],-1.0,-1,9,1.2
CC(NC(=O)c1ccccc1)C(=O)OCC(=O)N1c2ccccc2Sc2ccccc21 (configuration not stated),1,8.0%,-8.9,-4,4,1.5
OCCN1CCN(CC(O)COc2ccc(C34CC5CC(CC(C5)C3)C4)cc2)CC1 (configuration not stated),6,0.4%,1.0,7,26,3.5
COC(=O)CNC(=O)C1CCC(CNS(=O)(=O)c2cccc3nsnc23)CC1 (configuration not stated),0,-1.3%,0.2,3,6,-0.8
COC(=O)/C=C1\S/C(=N/NC(=O)c2ccc(OC)cc2)NC1=O,9,1.9%,-23,-2,-2,0.6
O=C(Cc1cccs1)Nc1nnc(SCc2ccc(Br)cc2)s1,5,12%,1.1,2,-15,2.2
CCCCC(=O)NC(=S)Nc1cccc(NC(=O)c2ccccc2)c1,-22,-0.8%,-0.1,3,-11,-0.7
Cc1ccc(CNc2ncnc3cc(Cl)ccc23)o1,-12,1.3%,-1.0,-8,-5,1.2
COc1ccc(C2C(C#N)=C(C)NC(C)=C2C#N)c(OC)c1,0,1.4%,-1.7,-3,-5,0.2
CCc1nonc1NC(=O)c1oc2ccc(Cl)cc2c1C,·,0.2%&1.9%,-1.9,2,16&4,1.1&3.5
COc1ccc(/C=N/NC(=O)C(=O)N2CCCCCC2)cc1O,0,2.7%,-3.8,1,-21,0.4
CC(C)(C)c1ccccc1NC(=O)C1=COCCO1,2,1.5%,-2.2,8,-2,-0.1
CC(=O)c1cc(C(=O)NC2CCCc3c2cnn3-c2cc(C)cc(C)c2)[nH]n1 (configuration not stated),-2,7.6%,-1.0,-2,-5,-0.8
COC(=O)[C@H](Cc1ccccc1)NC(=O)NCCc1ccccc1F,3,-0.6%,-7.8,5,·,·
O=C(C1CCN(Cc2cn[nH]c2-c2ccc(F)cc2F)CC1)N1CCOCC1,2,0.9%,-6.9,2,-6,-0.8
CSCCC(=O)N1CCC(n2nccc2NC(=O)c2ccc3c(c2)OCO3)CC1,5,1.6%,-0.5,23,4,-0.1
Cc1csc(SCC(=O)Nc2ccc(Cl)cn2)n1,5,0.7%,-3.9,3,-8,1.5
COc1cc(Nc2nc(SCC#N)nc3ccccc23)cc(OC)c1OC,-3,-3.9%[38.3 µM],-1.0,-2,2,1.8
OC(c1ccc2ccccc2n1)c1c(Cl)cccc1Cl (configuration not stated),-11,0.1%,3.6,4,13,0.1
Cc1cnc(C(=O)OCC(=O)Nc2ccc(Oc3ccccc3)cc2)cn1,7,-1.6%,0.2,-1,-14,-1.5
CC(=O)c1ccc(N2CCN(C(=O)C3CCN(S(=O)(=O)Cc4ccccc4)CC3)CC2)cc1,3,-0.2%,-4.0,3,2,-0.9
CCN(CC)CCN(C(=O)c1ccc2c(c1)OCCO2)c1nc2cc3c(cc2s1)OCO3,-7,-2.4%,-1.8,?,-9,-0.3
Cc1ccc(/C(N)=N/OC(=O)Cc2cccc3ccccc23)cc1,0,2.7%,9.9,29,-9,3.6
CC(C)Cc1ccc(C(C)CC2=CCC(CN(C)C)C2=O)cc1 (configuration not stated),-2,-2.0%,-3.2,-3,-15,-0.2
COc1ccc(Cc2c(O)nc(SC)n(C(C)=O)c2=O)cc1,-6,-1.4%,-3.2,-29,-17,-0.7
COc1ccc(CNC(=O)CN2C(=O)NC(C)(c3ccc(C(C)(C)C)cc3)C2=O)cc1 (configuration not stated),11,-1.7%,-1.5,-1,-4,-1.7
